# Mtb hypoxia inh: PubChem AID 1159583. 300,000 compounds, 0.1% hits. M. tuberculosis hypoxia-regulated fluorescent reporter, fluorescence. fluorescence inhibition, % (concentration not given with the values);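 active means 35 to 45% if threefold the growth effect, above 45% if 1.5-fold the growth effect; inactive means the rest, general growth blockers included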;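 further: wells of about 50 µL received 100 nL stock; 0% = vehicle wells and 100% = reference inhibitor wells; whole bacteria with a GFP reporter of the hypoxia response; strong numbers were not always called active; many hits fall short of the cut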
# BJeLR lethal: MLPCN primary cell-based screen for lethality selective to Ras in HRASV12 cells; BJeLR (HRASV12) viability, CellTiter-Glo ATP luminescence, 48 h; reference of the scale not given here; inhibition, % (concentration not given with the values); 300,000 compounds, 0.17% hits;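 active means replicate mean above 50%; inconclusive means above 50% but judged a plate artefact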;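 further: 50 nL library stock added to about 25 µL; numbers are from one replicate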
# RN4220 kill: growth inhibition of S. aureus RN4220, primary screen, OD600; 16 h; inhibition, % (concentration not given with the values); 330,000 compounds, 0.33% hits; AID 1259311, 2017;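 active means z-score of -3 or lower and OD600 up to 0.18 on both plates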;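 further: plate controls were untreated cells for no effect and reference antibiotic for full effect; stock transfer was 100 nL into about 80 µL; one replicate is shown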
# PrP 5UTR inh: inhibition of PrP 5' UTR reporter expression. cell-based PrP 5' UTR mRNA reporter, plate reader. inhibition, % (concentration not given with the values). 340,000 compounds, 0.35% hits;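 active means every replicate at 50% or more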;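 further: 0 = median of the neutral control wells; tested in H4 reporter cells; numbers are from one replicate; inactives centre near -14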
# Sa ugtP lethal: growth inhibition of ugtP-null S. aureus, primary screen, RN4220 ugtP deletion, OD600 | 16 h; some inactives read as strong as hits | growth inhibition, % (concentration not given with the values) | AID 1259309, 2017 | 330,000 compounds, 0.54% hits;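 active means z-score under -3 and OD600 up to 0.15 on both plates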;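 further: plate controls were untreated wells for no effect and antibiotic for full effect; wells of about 80 µL received 100 nL stock; the first replicate is given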
# Autofluor counter: compound fluorescence in toxin protease inhibitor counterscreen; AID 624483; 360,000 compounds, 3.1% hits; fluorescence intensity (concentration not given with the values); compound autofluorescence counterscreen, microsphere flow cytometry; hits give high values;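 active means at least 3 SD above the mean of all compounds, about 16000 in these data; inconclusive means too few beads counted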;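 further: 100 nL of 1 mM stock went into each well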
# Mtb hypoxia inh growth: also measured in Mtb hypoxia inh; calls as there; growth inhibition, %; measured here: M. tuberculosis growth (absorbance);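 0% = vehicle and 100% = reference antibiotic; read after six days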
# Numbers without * were called inactive; u = inconclusive; x = not tested or not shown.
SMILES,Mtb hypoxia inh,Mtb hypoxia inh growth,BJeLR lethal,RN4220 kill,PrP 5UTR inh,Sa ugtP lethal,Autofluor counter
O=C(O)CCc1nn2cc(-c3ccccc3)nc2[nH]c1=O,-9,-12,1,0.3,-7,-5,2686
CN1CCN(C(=O)c2ccc3ccccc3c2)CC1,3,5,-19,3.2,-44,4,23924*
CCn1cc(/C=C(\NC(=O)c2ccc(OC)cc2)C(=O)N2CCOCC2)c2ccccc21,2,4,6,3.8,-4,7,3848
CC1=C(C(=O)N2CCN(c3cc(C)ccc3C)CC2)C2(CCCCC2)OC1=O,x,x,-7,3.8,5,-3,4003
COc1ccc(N(CC(=O)Nc2ccccc2C(N)=O)S(=O)(=O)c2ccc(C)c([N+](=O)[O-])c2)cc1,3,4,-2,0.8,-17,-2,4520
CCNc1cc(N2CCOCC2)nc(SC)n1,13,2,1,6.1,-18,10,4154
Cc1nnc(NC(=O)CSc2ncn(-c3ccccc3)n2)s1,1,2,-3,0.1,-17,2,3710
O=[N+]([O-])c1ccc(O)c(/C=N/Nc2ncnc3c2cnn3-c2ccccc2)c1,x,x,27,x,30,x,3044
Cc1ccc(C(=O)NCC(c2ccco2)N2CCOCC2)cc1 (stereo not drawn),-4,2,4,0.4,18,-1,x
Cc1ccc(-c2nnc3n2N=C(c2ccccc2)CS3)cc1,x,x,-3,6.6,-15,0,6226
Cc1c(C(=O)N(Cc2ccccc2)C(C)C)oc2ccc(S(=O)(=O)N3CCOCC3)cc12,8,1,-9,4.4,-3,2,5254
CC(C)N(C(=O)C(F)(F)F)C(C(=O)NC1CCCCC1)c1ccncc1 (stereo not drawn),16,12,2,5.7,-12,-2,4145
c1nc(N2CCN(Cc3ccc4c(c3)OCO4)CC2)c2[nH]cnc2n1,5,5,3,2.8,-11,7,5399
CCCCN(C(=O)c1ccc(S(=O)(=O)N2CCCC2)cc1)C1CCS(=O)(=O)C1 (stereo not drawn),-4,-7,2,3.8,-4,3,u
C=CCOC(=O)COc1cc(C)cc2oc(=O)c3c(c12)CCC3,3,17,3,1.8,5,-7,6218
CC(OC(=O)c1cc[n+]([O-])cc1)C(=O)Nc1ccc(C(N)=O)cc1 (stereo not drawn),-6,-1,x,1.4,-11,2,3660
COC(=O)C1=C(c2cccc(C#N)c2)CC2CCC1N2C(=O)NC1Cc2ccccc2C1 (stereo not drawn),-2,0,x,-4.2,x,-10,x
O=C(CN1C(=O)c2ccccc2C1=O)Nc1ccc(N2CCOCC2)cc1,x,x,-3,0.2,-12,-4,3118
CCOCCCNC(=O)C1CCN(C(=O)Nc2ccc(C)cc2)CC1,-2,10,-2,4.6,-22,-6,8258
CCN(CC)S(=O)(=O)c1ccc(N2CCCC2)c(NC(=O)C2=COCCO2)c1,-5,10,-2,5.0,-7,1,u
O=C(Nc1cccc(Cl)c1N1CCCC1)c1ccc([N+](=O)[O-])o1,15,1,x,33,-3,-56,3353
COc1ccc(-c2nn(-c3ccccc3)cc2C=NNC(N)=S)cc1OC,-1,9,x,3.7,x,-15,x
CCC1=C2CCC3C(=O)N(CC)C(=O)C3C2[C@@]2(Cc3ccccc3)C(=NCc3ccccc3)OC(=O)N2C1=O (stereo partly drawn),-6,0,x,2.1,x,-5,x
COc1ccc(CCn2c(N)c(S(=O)(=O)c3cccs3)c3nc4ccccc4nc32)cc1OC,1,5,8,5.3,-16,10,8196
COc1ccc2c(c1)c(=O)c(C(=O)c1ccccc1)cn2Cc1ccc(C)cc1,-2,4,4,-0.9,-31,-8,6397
N#C/C(=C\c1cn(Cc2ccccc2)c2ccccc12)C(=O)NCc1ccco1,2,7,4,0.2,-22,-7,2684
CCOc1ccccc1C(=O)NCC(=O)NCc1ccc(S(=O)(=O)N2CCOCC2)cc1,-3,3,x,5.2,-11,-3,8564
O=C(Nc1ccc(-c2csc(Nc3cccc(C(F)(F)F)c3)n2)cc1)c1cc([N+](=O)[O-])cc(C(F)(F)F)c1,11,5,8,13,-11,-42,4322
COc1ccc(-n2c(C)c(C)c3c(NCCCO)ncnc32)cc1,0,-1,0,-2.1,-34,-7,4025
COc1cc(OC)cc(C(=O)NCC(=O)N2CCN(Cc3ccccc3)CC2)c1,-2,-1,x,1.5,-3,0,3912
Cc1cc(Cl)ccc1OCc1nnc2n1CCCCC2,11,2,0,8.3,-19,16,4503
Cc1cc(-c2nnc3n2CCCCC3)c(C)n1-c1ccccc1,3,9,-2,3.3,-10,0,7557
COc1ccc(Cl)cc1NC(=O)COC(=O)CNC(=O)c1ccc([N+](=O)[O-])c(C)c1,2,0,4,0.3,-27,7,2465
Cc1ccccc1NC(=O)Nc1ccc2c(c1)OCO2,-12,-1,6,1.5,-30,0,5757
COc1ccc(OC)c(-c2csc(-c3cccs3)n2)c1,-6,-7,0,-3.5,4,36,5905
CCCn1c(=O)c(C(=O)Nc2ccccc2C)c(O)c2ccccc21,14,8,-7,3.7,-23,11,4346
Cc1ccc(-c2[nH]c(-c3ccc(C(=O)O)cc3)nc2-c2ccccc2)cc1,x,x,7,x,-16,x,2728
O=C(Cn1cnc2c(cnn2-c2ccccc2)c1=O)Nc1ccc(S(=O)(=O)N2CCOCC2)cc1,4,16,-10,4.0,-7,2,2433
Cc1nc2c(Cl)cccc2[nH]1,x,x,-3,2.2,-4,3,4528
CC(=O)Nc1ccc(C(=O)COC(=O)C2CC2C)c(F)c1 (stereo not drawn),-1,-1,x,2.1,-71,0,5238
COc1ccc(C(=O)NC2CC3CCCC(C2)N3CC(C)C)cc1OC (stereo not drawn),8,9,7,7.3,-16,-4,3933
Cc1csc(-c2cnn(-c3ccccc3)c2NC(=O)c2ccccc2)n1,6,19,-9,3.1,6,1,4324
CC(Sc1nnc(NC2CCCCC2)s1)C(=O)Nc1ccc2c(c1)C(=O)c1ccccc1C2=O (stereo not drawn),2,7,6,18,-22,-11,2435
CC[C@]12c3[nH]c4cc(CCC(=O)N(C)C)ccc4c3CCN1C(=O)[C@@H](CC(=O)NCCc1ccccn1)C[C@@H]2C(=O)N1CCN(C(=O)c2ccco2)CC1,-7,9,x,2.8,-8,3,2996
CCOC(=O)c1c(N)sc(C(=O)N2CCOCC2)c1C,9,0,8,4.5,-5,0,11163
N#Cc1ccc(N2CCN(C(=O)c3cccs3)CC2)c(F)c1,19,7,-9,6.7,-36,7,4147
Cn1cc(C(=O)c2cccc(Cl)c2)cc1C=NO,-4,4,x,-2.2,x,0,x
Nc1cc(S(=O)(=O)N2CCCCC2)ccc1Oc1ccc(Cl)cc1,12,9,3,-1.9,-33,14,4460
CC(=O)c1c(C)[nH]c(C(=O)Nc2nc(-c3ccccc3)c(C)s2)c1C,-2,-8,1,-13,-60,38,2499
CCN(CC)c1ccc(NC(=O)CN2CCN(CC(=O)Nc3ccc(F)cc3)CC2)cc1,x,x,x,1.4,-20,11,2488
Cc1cccc(CCNC(=O)C2CCN(S(=O)(=O)N3CCOCC3)CC2)c1,-2,3,-4,1.0,-9,5,6369
Cc1ccc(NC(=S)N2CCN(C(=O)c3ccccc3)CC2)c(C)c1,7,23,-5,2.4,-35,0,4040
Cc1ccc(S(=O)(=O)NN)c(C)c1N1CCCC1=O,13,4,-4,-1.1,-8,-1,4740
O=C(NCc1ccccc1)c1ccc2c(=O)n(CC3CCCO3)c(=S)[nH]c2c1 (stereo not drawn),10,8,-11,-7.1,-73,6,8895
O=C(CSCc1ccccc1)N=Nc1c(O)[nH]c2ccccc12,7,7,1,5.1,-30,0,1968
CCOC(=O)C(NC(=O)CC)(Nc1ccc(S(=O)(=O)Nc2ncccn2)cc1)C(F)(F)F (stereo not drawn),15,6,11,2.2,-12,8,3055
Cn1nnnc1SCc1ccc(C(=O)Nc2ccc(Br)cc2)cc1,2,6,2,8.4,-75,4,2415
O=C(NC(=S)Nc1ccc(Cl)cc1Cl)C1CC1,13,13,-12,-9.1,-43,49,5148
CC(C)c1ccc(OCC(=O)NC(Cc2c[nH]c3ccccc23)C(=O)O)cc1 (stereo not drawn),-25,-12,7,1.9,8,2,4598
CC1Cc2ccccc2N1C(=O)c1ccc2nccnc2c1 (stereo not drawn),11,15,-1,1.9,-16,3,5132

# Structural class, the entries above containing a COOH group
SMILES,Mtb hypoxia inh,Mtb hypoxia inh growth,BJeLR lethal,RN4220 kill,PrP 5UTR inh,Sa ugtP lethal,Autofluor counter
O=C(O)CCc1nn2cc(-c3ccccc3)nc2[nH]c1=O,-9,-12,1,0.3,-7,-5,2686
Cc1ccc(-c2[nH]c(-c3ccc(C(=O)O)cc3)nc2-c2ccccc2)cc1,x,x,7,x,-16,x,2728
CC(C)c1ccc(OCC(=O)NC(Cc2c[nH]c3ccccc23)C(=O)O)cc1 (stereo not drawn),-25,-12,7,1.9,8,2,4598

# The results go on:
SMILES,Mtb hypoxia inh,Mtb hypoxia inh growth,BJeLR lethal,RN4220 kill,PrP 5UTR inh,Sa ugtP lethal,Autofluor counter
O=[N+]([O-])c1cccc(S(=O)(=O)Nc2ccc(Cc3ccncc3)cc2)c1,-5,-2,-4,1.5,6,-3,x
COc1ccc(C(=O)NC(=S)Nc2ccccc2N2CCCCC2)cc1[N+](=O)[O-],10,-2,-32,-0.2,-8,94*,2520
COC(=O)C(CCSC)NC(=O)/C=C/c1ccc(OC)cc1 (stereo not drawn),10,10,-6,-0.1,-25,19,4102
C=CCn1c2ccccc2c2nnc(SCCN3CCOCC3)nc21,1,2,0,4.1,5,5,3095
COc1ccc(C(=O)N(C)Cc2ccc(OC)c(OC)c2OC)cc1S(=O)(=O)N1CCOCC1,1,-6,x,3.0,-5,4,3095
CC(=O)c1ccc(NC(=O)c2noc3c2CCCCC3)cc1,-14,-6,-13,-3.8,-78,-10,8025
COc1ccc(C(=O)N(C)C2CCCCC2)cc1OC1CCN(C(C)C)CC1,5,17,0,2.0,-11,5,6453
COc1ccc(OC)c(/C=N/NC(=O)C(=O)N2CCCCCC2)c1,x,x,-2,x,-5,x,6311
O=C(O)c1ccccc1NC(c1ccccc1)c1ccc(Cl)cc1 (stereo not drawn),x,x,12,x,-7,x,4355
Cc1cc(-c2nnc(SCCC(=O)Nc3ccccc3)o2)no1,15,8,-7,4.5,-4,6,5151
O=C(CSc1cccc(C(F)(F)F)c1)Nc1nnc(C2CC2)s1,-10,8,x,2.9,1,3,u
Cc1ccc(NC(=O)c2ccc(Cl)nc2)cc1,-2,4,-2,4.1,11,4,4750
CC(C)(C)[C@H]1C=C(C(=O)NCc2nc3ccccc3[nH]2)O[C@@H](OCCCCO)C1,x,x,-15,x,-11,x,4144
O=C(NCc1cccnc1)Nc1ccc(Cl)cc1Cl,0,-2,-9,1.2,-10,7,x
O=C(NN=Cc1cccnc1)c1cc2ccccc2o1,7,-5,x,4.8,x,2,x
ON1C2CCCCC2N(O)C1c1ccccc1C(F)(F)F (stereo not drawn),14,5,5,6.0,-36,7,3653
COc1cccc(C(=O)N2CCN(C(=O)C3COc4ccccc4O3)CC2)c1 (stereo not drawn),13,3,-4,4.1,5,1,5329
O=C(O)COc1ccccc1C=NNC(=O)CSc1nc2ccccc2c(=O)n1-c1ccc(Cl)cc1,14,-1,x,2.7,x,8,x
CCOCCCNC(=O)C1CCCN(S(=O)(=O)c2cccc3nsnc23)C1 (stereo not drawn),x,x,6,x,-35,x,5767
FC(F)(F)c1ccc(CN2CC3C(c4ccc(Cl)nc4)C4(c5ccccc5)CC3(C4)C2c2ccccc2)cc1 (stereo not drawn),20,15,x,-2.7,x,0,x
COc1ccc(Cl)cc1NC(=O)c1nnn(CC(=O)Nc2cc(C)cc(C)c2)c1N,5,4,-1,-0.4,-16,-1,5747
CC(C)CO/C(=N/S(=O)(=O)c1ccccc1)c1ccccc1,x,x,3,x,-8,x,21474*

# An excerpt from above with just Autofluor counter, PrP 5UTR inh and Mtb hypoxia inh growth.
Molecule | Autofluor counter | PrP 5UTR inh | Mtb hypoxia inh growth
O=C(O)c1ccccc1NC(c1ccccc1)c1ccc(Cl)cc1 (stereo not drawn) | 4355 | -7 | x
Cc1cc(-c2nnc(SCCC(=O)Nc3ccccc3)o2)no1 | 5151 | -4 | 8
O=C(CSc1cccc(C(F)(F)F)c1)Nc1nnc(C2CC2)s1 | u | 1 | 8
